# PKD1 kinase inh: blocks activity of human protein kinase D1; AID 797; actives 0.056% (n = 200,000); PKD1 kinase fluorescence polarization assay; inhibition, %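 (about 10 µM by stock and volumes)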;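 active = inhibition of 50% or more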;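 also: controls were vehicle for no effect and a reference inhibitor for full effect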
# Target sequence (Q15139 whole entry, looked up): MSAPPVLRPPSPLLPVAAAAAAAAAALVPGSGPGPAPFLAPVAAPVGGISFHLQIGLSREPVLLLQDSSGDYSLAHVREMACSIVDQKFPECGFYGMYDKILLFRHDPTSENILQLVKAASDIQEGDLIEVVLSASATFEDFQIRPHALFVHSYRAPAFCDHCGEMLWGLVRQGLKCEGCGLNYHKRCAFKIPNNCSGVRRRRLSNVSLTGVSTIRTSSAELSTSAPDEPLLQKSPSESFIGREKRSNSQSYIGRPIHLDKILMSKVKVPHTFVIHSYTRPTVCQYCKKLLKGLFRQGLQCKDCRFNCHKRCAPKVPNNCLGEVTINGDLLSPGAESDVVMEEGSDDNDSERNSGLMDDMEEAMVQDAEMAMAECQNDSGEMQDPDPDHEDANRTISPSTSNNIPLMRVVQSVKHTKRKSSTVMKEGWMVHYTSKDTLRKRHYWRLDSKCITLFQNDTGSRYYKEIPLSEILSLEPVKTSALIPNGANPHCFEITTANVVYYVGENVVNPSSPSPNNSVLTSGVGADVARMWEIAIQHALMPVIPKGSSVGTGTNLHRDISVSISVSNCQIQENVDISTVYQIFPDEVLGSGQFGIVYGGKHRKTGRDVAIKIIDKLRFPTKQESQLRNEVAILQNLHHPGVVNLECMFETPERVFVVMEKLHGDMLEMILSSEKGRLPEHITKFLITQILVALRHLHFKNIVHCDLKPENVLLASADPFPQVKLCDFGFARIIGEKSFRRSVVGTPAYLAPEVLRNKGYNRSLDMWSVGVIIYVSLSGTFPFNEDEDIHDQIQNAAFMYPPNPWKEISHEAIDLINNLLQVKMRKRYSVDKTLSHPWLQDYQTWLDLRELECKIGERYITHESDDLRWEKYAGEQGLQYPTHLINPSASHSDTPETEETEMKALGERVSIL
# RGS16-Gao: modulates binding between human RGS16 and Galphao | O15492+P09471 | bead-based flow cytometry RGS16-Galphao binding, fluorescence; actives lie on both sides | binding response (% of control), % at 10 µM | actives 0.38% (n = 220,000) | AID 1441;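 active = below 25% or above 175%, edge rows of some plates excepted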;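 also: Galphao activated by GDP with aluminum fluoride before binding; 100% = wells without compound and 0% = beads without RGS; some results beyond the cut were filed as inactive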
# INS promoter inh: TRM-6 insulin promoter activity inhibition. TRM-6 cells (human fetal islet line), insulin promoter-eGFP reporter, imaging; reporter expression induced with tamoxifen. inhibition, % at 2 µM. actives 0.9% (n = 130,000);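 active = inhibition above the mean plus 3 SD, with well images judged a real hit on visual review, cut at about 60% in these data, passing the limit was not always enough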
# HSV replic up: increases HSV replication in cells. HSV replication augmentation in cells, fold increase. AID 1956. actives 0.005% (n = 220,000). maximum fold increase;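 active = peak rise of 1.5-fold or more in the series; tested in PC3 cells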;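 also: first round at 10 µM; read as green reporter fluorescence; hits show the peak of a series up to 25 µM; 1 = signal of infected wells without compound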
# GALR2 agonist: activates the human galanin receptor 2 | O43603 | GALR2-expressing cells, agonist activation read-out | activation, %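 (tested at 5 µM)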 | actives 0.48% (n = 140,000) | AID 803;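 active = above mean plus 3 SD of all compounds, about 5% in these data, not always enough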;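 also: 0% = vehicle buffer wells and 100% = reference agonist at full effect; tested in CHO reporter cells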
# INS promoter inh cell count: also measured in INS promoter inh; calls as there; normalized cell count, %; measured here: cell count, toxicity; reference of the scale not given here;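 cells exposed to compound for 48 h; stained nuclei by imaging scaled within each plate; lower means fewer cells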
# HSV replic up primary fold: second read-out of HSV replic up, no call of its own (marks repeat the call); fold increase; compound at 10 µM; measured here: primary screen fold increase 10 uM; tested in PC3 cells;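 GFP signal in the first replicate; 1 = infected wells without compound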
# * = called active by the depositor; i = inactive; nt = no result given.
SMILES,PKD1 kinase inh,RGS16-Gao,INS promoter inh,INS promoter inh cell count,HSV replic up,HSV replic up primary fold,GALR2 agonist
CCC(C)(C(=O)NC1CCCC1)N(C(=O)CNC(C)=O)c1ccccc1 (configuration not stated),-10,106,nt,nt,i,1,-0.8
O=C(C1CCN(c2ncnc3c2sc2cccc(F)c23)CC1)N1CCOCC1,-12,102,nt,nt,i,0.82,-2.3
CC(=O)N1CC=CC1(CC(C)C)C(=O)NCCc1c[nH]c2ccccc12 (configuration not stated),-4,102,-62,112,i,1.1,-0.5
COc1ccc2nc(C)c3cc(C)oc3c2c1,-2,100,90*,48*,i,0.85,-1.9
CCS(=O)(=O)N1CCC(C(=O)NCCC2=CCCCC2)CC1,-6,100,nt,nt,i,0.99,-3.3
CCn1cc(C(=O)O)c(=O)c2cc(S(=O)(=O)N(C)C)ccc21,1,109,56,93,i,1.3,-2.1
CCCOc1ccc(C2/C(=C(/O)c3ccccc3)C(=O)C(=O)N2CCCN(C)C)cc1OC (configuration not stated),-17,nt,45,64,nt,nt,-1.2
CCc1nnc(NC(=O)[C@@H](NC(=O)c2cccc(S(=O)(=O)N(CC)CC)c2)C(C)C)s1,-14,106,6,164,i,0.98,-2.5
O=[N+]([O-])c1ccc(CSc2ccc(-c3ccccn3)nn2)cc1,7,102,6,114,i,1.2,nt
Cc1ccc(-c2nn3cnnc3c3ccccc23)cc1C,4,101,nt,nt,i,0.95,nt
CCN(CC)S(=O)(=O)c1ccc(N(C)Cc2cccnc2)nc1,-5,99,52,88,i,0.87,-1.4
CC1(C(=O)NCCCNc2ncc(C(F)(F)F)cc2Cl)C=CCN1C(=O)c1ccccc1 (configuration not stated),4,103,5,126,i,1,-1.6
Cc1ccc(Nc2ncccc2C(=O)NCc2cccs2)c(C)c1,-17,102,-7,124,i,0.82,-2.1
COC(=O)CSC1=C(C#N)C(c2cccc(F)c2)CC(=O)N1 (configuration not stated),3,101,12,111,i,0.69,-1.7
COc1ccc(NC(=O)CN(C)S(=O)(=O)c2ccc(C)cc2)c([N+](=O)[O-])c1,-11,80,nt,nt,i,1.2,-1.6
Cc1oc(/N=C/c2ccc(Cl)cc2Cl)c(C#N)c1C,-3,103,nt,nt,i,1.1,-1.2
COC(=O)Nc1nnc(/C=C/c2ccc(OC)cc2)s1,-10,49,nt,nt,i,0.91,-0.2
COc1ccccc1CN1CCN(Cc2nc(Cc3ccccc3)no2)CC1,-9,100,nt,nt,i,1.1,nt
C1CCC(n2nnnc2CN2CCCC2)CC1,4,113,37,131,i,0.83,-0.7
C=CCNCC(=O)Nc1sc2c(c1C(=O)Nc1ccc(OC)cc1OC)CCC2,2,99,nt,nt,i,0.98,nt
CCOc1ccc(CC(=O)Nc2ccc(NC(=O)c3ccco3)cc2)cc1OCC,-2,16*,-100,81,i,0.85,nt
COc1ccc(OC)c(-n2c(N)c(C(=O)NCC3CCCO3)c3nc4ccccc4nc32)c1 (configuration not stated),10,99,-33,94,i,0.98,3.8
Cc1ccc(Cn2c(=O)n(CCC(=O)NCc3ccc4c(c3)OCO4)c(=O)c3ccccc32)cc1,-8,100,-36,78,i,0.95,-0.5
Fc1ccc(CSc2nnc(-c3cccnc3)o2)cc1,1,105,nt,nt,i,0.93,nt
O=C(Cn1cnc2ccccc2c1=O)c1c[nH]c2ccccc12,-1,98,nt,nt,i,1.1,-0.6
CC(C)c1ccc(CN2CCN(C(=O)CCl)CC2)cc1,-4,102,nt,nt,i,1.1,nt
CCOc1ncccc1C(=O)OCC(=O)c1cc(OC)ccc1OC,-6,96,nt,nt,i,1,nt
Fc1ccc(CSc2nc3ccccc3[nH]2)c2ccccc12,-1,101,19,96,i,0.97,-3.4
Cc1cc(=S)nc(-c2ccccn2)[nH]1,nt,95,nt,nt,i,0.96,nt
O=C(NCc1ccccc1)OCCN1CCN(Cc2ccccc2)CCC1=O,-6,109,-29,75,i,1.1,-0.2
COc1cc(OC)cc(C(=O)Nc2ccc(-c3nc4ccccc4o3)c(O)c2)c1,-18,101,36,186,i,0.95,-0.8
COc1cc(NC(=O)C2CCCN2S(=O)(=O)c2cccc3cccnc23)cc(OC)c1OC (configuration not stated),6,105,nt,nt,nt,nt,0.5
CC(C)(C)C(=O)Nc1ccc(-c2cnco2)cc1,nt,106,nt,nt,i,0.87,nt
Cc1ccc(C(=O)NCCNS(C)(=O)=O)cc1,-1,112,-21,104,i,0.97,nt
Cc1c(Br)c([N+](=O)[O-])nn1CC(=O)NCc1cccs1,0,113,-58,68,i,0.84,-1.2
Cc1cc(CCN2CCC(=O)NC2=O)ccc1OC(C)C,-4,116,-29,80,i,0.96,1.5
Cc1cccc(-c2nnc(SCC#N)n2Cc2ccccc2)c1,-22,108,21,100,i,1.1,-2.8
CN(C)c1ccc(C(=O)Nc2nnc(-c3ccc(Cl)cc3)o2)cc1,-7,83,nt,nt,i,0.99,-0.2
COCCSc1ccccc1C(=O)N1CCN(c2ccccc2OC)CC1,-9,93,nt,nt,i,0.93,nt
COc1cccc(NC(=O)CN2CCC(C)CC2)c1,1,103,nt,nt,i,0.78,-2.3

# Record cards, as listed above:
# `Fc1ccc(CSc2nc3ccccc3[nH]2)c2ccccc12` across the screens: PKD1 kinase inh = -1; RGS16-Gao = 101; INS promoter inh = 19; INS promoter inh cell count = 96; HSV replic up = i; HSV replic up primary fold = 0.97; GALR2 agonist = -3.4
# `CC(C)(C)C(=O)Nc1ccc(-c2cnco2)cc1` across the screens: PKD1 kinase inh = nt; RGS16-Gao = 106; INS promoter inh = nt; INS promoter inh cell count = nt; HSV replic up = i; HSV replic up primary fold = 0.87; GALR2 agonist = nt

# Additional results follow.
SMILES,PKD1 kinase inh,RGS16-Gao,INS promoter inh,INS promoter inh cell count,HSV replic up,HSV replic up primary fold,GALR2 agonist
Cc1ccc(C(=O)NN2C(=O)c3ccc(S(=O)(=O)c4ccc(C(=O)O)cc4)cc3C2=O)cc1,-4,101,58,103,i,1,nt
Cc1nnsc1C(=O)NNc1ccc(C(C)(C)C)cc1,nt,98,nt,nt,i,1.1,nt
Cc1cc(C)c(C#N)c(SCC(=O)C(C)(C)C)n1,1,103,24,139,i,0.87,-2.5
Cc1c(C)n(C(=O)CN2CCC(C)CC2)c2ccccc12,-7,96,-3,119,i,1,-0.6
CCCOC(=O)C1[C@H]2C(=O)N(Cc3ccco3)C[C@]23C=C[C@H]1O3 (some centres not stated),3,99,nt,nt,i,0.73,-2.4
COc1cccc(NC2=CC(=O)CC(C)(C)C2)c1,0,95,-9,102,i,0.76,-1.1
O=C(OC1CCOC1=O)c1ccc(NS(=O)(=O)c2cccs2)cc1 (configuration not stated),-4,96,nt,nt,i,1.1,nt
Cc1ccc(OCC(=O)NC(=S)Nc2ccc3c4c(cccc24)CC3)cc1,8,112,11,55,i,1,-1.9
O=C(CSc1nc2c(c(=O)n1-c1ccccc1)SCC2)NCC1CCCO1 (configuration not stated),nt,100,nt,nt,i,0.88,nt
CC(=O)N1CCN(c2cc(N3CCc4ccccc4C3)c(F)cc2[N+](=O)[O-])CC1,-9,99,-75,137,i,0.82,-0.3
Nc1ccc2oc(-c3ccccc3Cl)cc(=O)c2c1O,-8,110,48,124,i,0.65,0.1
Cc1onc(-c2c(Cl)cccc2Cl)c1-c1nc2cc(Cl)ccc2c(=O)o1,nt,102,nt,nt,i,0.84,nt
CCOC(=O)c1sc(C)c2c1NC(c1ccc(N(C)C)cc1)NC2=O (configuration not stated),-7,103,26,190,i,1,-0.6
O=C(Cn1cc([N+](=O)[O-])nc1[N+](=O)[O-])N1CCN(c2ccccc2)CC1,17,108,nt,nt,i,1.1,nt
N#Cc1ccc(/C=N/NC(=O)c2cc(-c3cccs3)nc3ccccc23)cc1,-1,102,nt,nt,i,0.78,1.0
CCOc1ccc(CNC(=O)CCSCc2ccccc2F)cc1OC,-6,97,-17,123,i,1,nt
COc1cc(/C=N/Nc2nc3ccccc3[nH]2)cc(Br)c1OCC(=O)N(C)C,-2,108,nt,nt,i,0.77,nt
CCOc1ccccc1NC1c2ccccc2C(=O)N1Cc1ccco1 (configuration not stated),6,101,nt,nt,i,0.87,-1.5
CCCCn1ccnc1C(=O)c1cccc(S(=O)(=O)N2c3ccccc3CC2C)c1 (configuration not stated),-7,101,nt,nt,i,0.85,-0.7
CCOC(=O)c1[nH]c2ccc(OCC)cc2c1NC(=O)CN1CCN(c2ccccc2)CC1,-7,104,nt,nt,i,0.96,-1.5

# Brought forward from above: six entries; new compounds follow.
SMILES,PKD1 kinase inh,RGS16-Gao,INS promoter inh,INS promoter inh cell count,HSV replic up,HSV replic up primary fold,GALR2 agonist
N#Cc1ccc(/C=N/NC(=O)c2cc(-c3cccs3)nc3ccccc23)cc1,-1,102,nt,nt,i,0.78,1.0
CCOc1ccc(CNC(=O)CCSCc2ccccc2F)cc1OC,-6,97,-17,123,i,1,nt
COc1cc(/C=N/Nc2nc3ccccc3[nH]2)cc(Br)c1OCC(=O)N(C)C,-2,108,nt,nt,i,0.77,nt
CCOc1ccccc1NC1c2ccccc2C(=O)N1Cc1ccco1 (configuration not stated),6,101,nt,nt,i,0.87,-1.5
CCCCn1ccnc1C(=O)c1cccc(S(=O)(=O)N2c3ccccc3CC2C)c1 (configuration not stated),-7,101,nt,nt,i,0.85,-0.7
CCOC(=O)c1[nH]c2ccc(OCC)cc2c1NC(=O)CN1CCN(c2ccccc2)CC1,-7,104,nt,nt,i,0.96,-1.5
COc1ccc(NC(=O)C2CCCO2)cc1Cl (configuration not stated),0,99,33,89,i,0.81,-0.3
CC1CCC(NC(=O)C(Cc2ccccc2)n2cccc2)CC1 (configuration not stated),nt,101,nt,nt,i,1.1,nt
O=C(CCc1ccc(S(=O)(=O)NC2CCCCC2)cc1)NCc1ccccn1,-1,101,-50,100,i,0.86,nt
CCC(=O)N1N=C(c2c(O)n(C)c(=O)n(C)c2=O)CC1c1ccccc1 (configuration not stated),nt,104,nt,nt,i,0.92,nt
Cc1ccccc1NC(=O)C(NS(=O)(=O)c1ccc2c(c1)c(=O)n(C)c(=O)n2C)c1ccccc1 (configuration not stated),10,103,nt,nt,i,0.85,-2.6
O=C(NC(NC(=S)Nc1c(Cl)cccc1Cl)C(Cl)(Cl)Cl)OCc1ccccc1 (configuration not stated),-11,104,41,102,i,0.84,0.0
O=C1NC[C@H](c2ccccc2)N(CCc2cc(C(F)(F)F)cc(C(F)(F)F)c2)C1=O,nt,106,nt,nt,i,1,nt
Fc1ccc(CNC(=S)Nc2ccccc2Cl)cc1,9,35,47,147,i,1.1,-0.7

# Structural class, those above with a CF3 group
SMILES,PKD1 kinase inh,RGS16-Gao,INS promoter inh,INS promoter inh cell count,HSV replic up,HSV replic up primary fold,GALR2 agonist
CC1(C(=O)NCCCNc2ncc(C(F)(F)F)cc2Cl)C=CCN1C(=O)c1ccccc1 (configuration not stated),4,103,5,126,i,1,-1.6
O=C1NC[C@H](c2ccccc2)N(CCc2cc(C(F)(F)F)cc(C(F)(F)F)c2)C1=O,nt,106,nt,nt,i,1,nt

# Entries listed so far that bear a hit mark in RGS16-Gao.
Molecule | PKD1 kinase inh | RGS16-Gao | HSV replic up | HSV replic up primary fold | GALR2 agonist
CCOc1ccc(CC(=O)Nc2ccc(NC(=O)c3ccco3)cc2)cc1OCC | -2 | 16* | i | 0.85 | nt

# Assay outcomes as filed in PubChem.
